HPGD block: qHTS Assay for Inhibitors of HPGD (15-Hydroxyprostaglandin Dehydrogenase). 15-hydroxyprostaglandin dehydrogenase [NAD(+)] (Homo sapiens), P15428. purified HPGD, NADH fluorescence kinetic, PGE2 substrate. Potency, µM, for the others: at the top dose activity change, negative = inhibition, usual class: inhibitors. 4.3% of 150,000 active; active = well fitted inhibition curve with a large enough effect (not every such curve was filed as active); inconclusive = small, poorly fitted or top-dose-only effect, or another doubt; inactive = no such curve, though single readings can be large or run the other way;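 further: top concentration of the series not given in the record; plate controls included wells without enzyme; inactives centre near -10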
Target sequence (P15428 whole entry, looked up): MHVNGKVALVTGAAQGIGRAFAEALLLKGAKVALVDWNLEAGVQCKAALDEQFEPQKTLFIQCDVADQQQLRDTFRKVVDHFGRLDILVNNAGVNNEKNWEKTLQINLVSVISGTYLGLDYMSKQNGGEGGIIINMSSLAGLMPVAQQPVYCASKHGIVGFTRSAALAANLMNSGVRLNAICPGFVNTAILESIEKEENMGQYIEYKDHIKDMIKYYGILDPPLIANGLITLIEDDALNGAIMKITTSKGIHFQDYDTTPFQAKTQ
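20 nM HPGD preincubated 15 min at room temperature with compound in 50 mM Tris-HCl pH 8, 0.01% Tween 20. Started with 1 mM NAD+ and 30 uM prostaglandin E2; NADH fluorescence (360/450 nm) read 5 times over 30-s intervals, last minus first.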
Active calls of the source: *; ? = inconclusive. On the % scale 0 is the no-effect control and ±100 the full control effect; potency means the concentration at half of the fitted maximal effect. These rows are one share of the data, so the mix of outcomes need not match the whole.

| item | Molecule | HPGD block |
| --- | --- | --- |
| 1 | CCOC(=O)CNc1c(-c2ccc(O)cc2)nc2ccc(Cl)cn12 | -29.8% |
| 2 | CC(C)NC(=O)c1ccccc1NC(=O)c1ccccc1N(C)S(C)(=O)=O | -1.9% |
| 3 | CCOC(=O)C(=CNc1cccc(C)n1)C(=O)OCC | -12.5% |
| 4 | Cc1c(C(=O)Nc2cccc(-c3nnc4n3CCCCC4)c2)oc2ccccc12 | ? |
| 5 | CC(=O)OC(C(=O)c1ccccc1)c1ccccc1 (stereo not drawn) | -14.7% |
| 6 | COc1cc(NS(=O)(=O)c2ccc(C)cc2)c2ncccc2c1 | ? |
| 7 | CCOc1ccccc1-c1nc(C(N)=O)c2[nH]c(=O)n(-c3cccc(C)c3)c2n1 | -24.7% |
| 8 | Cc1cc(C)c2c(n1)sc1c(O)cc(=O)[nH]c12 | ? |
| 9 | C=C(C)OC(C)=O | -7.3% |
| 10 | Cc1ccc2[nH]cc(CCNC(=O)CN3C(=O)c4ccccc4C3=O)c2c1 | ? |
| 11 | CC(C)OC(=O)CC(=O)CSc1nc(-c2ccc(F)cc2)cc(-c2ccccc2)c1C#N | ? |
| 12 | CCOc1nc(C)ccc1-c1noc(CC)n1 | -7.1% |
| 13 | Cc1cccc(Cn2cc(SCC(=O)Nc3nccs3)c3ccccc32)c1 | -12.2% |
| 14 | COc1ccccc1CC(=O)N1CCN(c2cccc(C(F)(F)F)c2)CC1 | -6.8% |
| 15 | Cn1c(=O)c2c(ncn2CC(=O)OCC(=O)NC2CCCc3ccccc32)n(C)c1=O (stereo not drawn) | -3.4% |
| 16 | COC(=O)N[C@@H](/C=C/c1ccccc1)/C(C(=O)OC)=C(\C)NCc1ccccc1 | -12.3% |
| 17 | Cc1cccc2c1-c1sc(C(=O)Nc3nccs3)cc1CO2 | ? |
| 18 | Cc1cc(C)c(C(=O)CSc2nnc(-c3ccccc3Br)o2)cc1C | -8.5% |
| 19 | CC(c1ccco1)N(C(=O)C12CC3CC(CC(C3)C1)C2)c1ccccn1 (stereo not drawn) | -9.2% |
| 20 | CN(C)CCN1C(=O)C(=O)/C(=C(/O)c2ccc(F)cc2)C1c1ccccc1F (stereo not drawn) | -12.5% |
| 21 | COC(=O)c1c(NC(=O)COC(=O)[C@@H](NS(=O)(=O)c2ccccc2)C(C)C)sc2c1CCC2 | -14.8% |
| 22 | CCOC(=O)c1nnc(-c2ccccc2)nc1Sc1ccccc1Cl | -3.3% |
| 23 | CC(=O)N(Cc1ccccc1)c1ccc(C(=O)O)cc1 | -3.2% |
| 24 | COC(=O)CCCC1=CC2=CC(=O)C(C)(OC(=O)c3cccs3)C(=O)C2=CN1C(CO)CO (stereo not drawn) | 1.8% |
| 25 | CCOc1ncccc1C(=O)NCc1cccc(OC)c1 | ? |
| 26 | Cc1ccc(NC(=O)c2snc3ccc(Cl)cc23)cc1C | -15.9% |
| 27 | Cc1ccc(NC(=O)C(=O)N2CCCC2)cc1Cl | -17.0% |
| 28 | Cc1cc(C)c(NC(=O)COC(=O)/C=C/c2cccs2)c(C)c1 | -20.1% |
| 29 | COc1ccc(C(=O)/C=C/c2ccc(N3CCCCC3)c([N+](=O)[O-])c2)c(OC)c1 | -24.4% |
| 30 | Cc1cc(N2CCCC2=O)c(N)cc1N | -9.4% |
| 31 | CCOc1ccc2ccccc2c1C(=O)N1CCN(c2ccccc2)CC1 | -2.7% |
| 32 | Cc1ccc(S(=O)(=O)N(Cc2ccccc2)Cc2ccco2)cc1 | -27.4% |
| 33 | O=C(NCCN1CCN(c2ccccc2)CC1)C1CCN(S(=O)(=O)c2cccc3nonc23)CC1 | -11.0% |
| 34 | Cc1c(OCc2ccccc2)cccc1OCc1ccccc1 | -11.4% |
| 35 | O=c1c(-c2ccc(F)c(F)c2)nc2cncnc2n1Cc1ccccc1Cl | -10.2% |
| 36 | CCNC(=O)C1CC(=O)N(Cc2ccc3c(c2)OCO3)C(=Nc2ccc(OCC)cc2)S1 (stereo not drawn) | -10.1% |
| 37 | CCCN(CC(=O)Nc1ccc(Cl)cc1Cl)C(=O)/C=C/c1cccc([N+](=O)[O-])c1 | -7.9% |
| 38 | Cc1cc(NCCCN2CCOCC2)n2c(nc3ccccc32)c1C#N | ? |
| 39 | COCCCNC(=O)C1CCN(c2nc(C)cc(C)n2)CC1 | ? |
| 40 | O=C(CN1CCN(C(=O)c2cccs2)CC1)Nc1ccc(Br)cc1 | -11.8% |
| 41 | O=C(c1cccc(S(=O)(=O)N2CCOCC2)c1)N1CCN(c2ccc(F)cc2)CC1 | -3.4% |
| 42 | CC1(c2ccccc2)NC(=O)N(CC(=O)NC(=O)NC2CCCC2)C1=O (stereo not drawn) | -10.4% |
| 43 | CCC(Cc1ccccc1)NC(=O)CN1C(=O)CSc2ncccc21 (stereo not drawn) | -6.1% |
| 44 | Cc1n(CC(O)COC2CCCCC2)c2ccccc2[n+]1C (stereo not drawn) | -3.6% |
| 45 | CN1CCN(S(=O)(=O)c2ccc(-c3ccc(S(=O)(=O)N4CCN(C)CC4)cc3)cc2)CC1 | -2.4% |
| 46 | Cn1c(=O)cc(OCC(=O)NC2CCCCC2)c2ccccc21 | -27.1% |
| 47 | COc1ccccc1N(C)S(=O)(=O)c1ccc(C(=O)NC(C)(C)C)cc1 | ? |
| 48 | CCCCNS(=O)(=O)c1ccc(OC)c(Cl)c1Cl | -17.2% |

(further entries)
#	Structure	HPGD block
49	CC(C)(C)NC(=O)c1oc2ccccc2c1COc1ccccc1	-23.5%
50	Cc1cc(C)c(C#N)c(Sc2nnnn2-c2ccccc2)n1	4.1%
51	CSc1nc(NCc2ccco2)c2ccccc2n1	?
52	Cc1cc(O)ccc1NC(=O)c1ccccc1	-9.7%
53	C=CCOC(=O)CCCCCCCC	-1.6%
54	Cc1nnc(N(Cc2ccco2)C(=O)c2cccc(C#N)c2)s1	0.3%
55	COc1ccc(/C=N/Nc2ncnc(Cl)c2N)cc1OC	-16.9%
56	CC(C)NC(=O)Cn1c(SCC(=O)N2CCCc3ccccc32)nc2ccccc21	-3.9%
57	COc1ccc(Br)cc1C(=O)Nc1ccc(O)cc1	-13.9%
58	CCc1ccccc1NC(=O)CC1CS(=O)(=O)CC1CC(=O)Nc1ccccc1CC (stereo not drawn)	-1.4%
59	COC(=O)c1ccc(OCc2nc(N)nc(N3CCOCC3)n2)cc1	-5.1%
60	CCc1cccc2c(=O)c(C(=O)N3CCCCCC3)c[nH]c12	-26.4%
61	Cc1cc(C)c(S(C)(=O)=O)c(Oc2ccc(C(C)(C)C)cc2)n1	-6.8%
62	NC(=O)NC(c1ccccc1)c1ccccc1F (stereo not drawn)	3.0%
63	COC(=O)c1oc2nc(C)cc(C)c2c1N	?
64	COc1ccccc1C(=O)Nc1nnc(-c2ccco2)s1	?
65	O=C(NC1CCN(Cc2ccccc2)CC1)C12CC3CC(CC(C3)C1)C2	-3.2%
66	COc1ccc(C(=O)c2ccc(OC)c(Br)c2)cc1Br	-15.7%
67	c1ccc2c(N3CCCCC3)nc(N3CCCC3)nc2c1	-10.9%
68	Cc1ccc(Cn2c(NCCc3ccccc3)nc3c2c(=O)n(C)c(=O)n3C)cc1	-15.3%
69	O=C(CC(=O)c1cc(Cl)ccc1O)c1ccccc1	25.1µM*
70	CCC(=O)N(CC(=O)Nc1sc(C)c(C)c1C(N)=O)C1CCCCC1	-7.2%
71	CC(Nc1cc(=O)n(C)c(=O)[nH]1)c1ccccc1 (stereo not drawn)	-7.0%
72	Cc1ccc(C)c(NS(=O)(=O)c2c(C)ccc3nsnc23)c1	-20.4%
73	CCOc1ccc(NC(=O)/C(C#N)=C/c2ccc(N3CCCC3)c(C)c2)cc1	-16.8%
74	CCOc1ccc(-c2nc(C#N)c(NC3CC3)o2)cc1	?
75	CC(C)(C)N=C1SCC(C)(/C=N/O)S1 (stereo not drawn)	-4.6%
76	CSc1sc(C)cc1/C=N/O	15.8µM*
77	CC(C)(C)NC(=O)CN(Cc1cccs1)C(=O)c1csnn1	0.5%
78	O=C(NNc1ccccc1Br)C(O)(c1cccc(C(F)(F)F)c1)c1cccc(C(F)(F)F)c1	-4.5%
79	O=C(Oc1cccc2cccnc12)c1cccc(N2C(=O)C3C4CCC(C4)C3C2=O)c1 (stereo not drawn)	-6.9%
80	COc1ccc(N(CC(=O)N2CCN(C)CC2)S(=O)(=O)c2ccccc2)cc1OC	-5.4%
81	Cc1cccc(N(C(=O)c2ccc(CN3CCOCC3)o2)C(C(=O)NC2CCCCC2)c2ccc(F)cc2)c1 (stereo not drawn)	-3.8%
82	COc1ccc(C)cc1NC(=O)C(Sc1nnc(-c2cccs2)o1)c1ccccc1 (stereo not drawn)	-24.7%
83	CCOC(=O)C(C)n1cnc2c(nnn2-c2cccc(Cl)c2)c1=O (stereo not drawn)	-18.4%
84	O=C(Nc1cccc2c1CCCC2)C1CCN(c2nnnn2-c2ccccc2)CC1	-10.4%
85	COc1cccc(N(CC(=O)NC(C)(C)C)C(=O)C2CSC(=O)C2)c1 (stereo not drawn)	-1.5%
86	Cc1ccc(OCC(=O)NCCC2=CCCCC2)cc1	-20.0%
87	CC1(C)CC(=O)/C(=C(/O)Cc2ccccc2)C(=NCCc2ccccc2)C1	-13.4%
88	CC1=C(C(=O)OCc2ccccc2)C(c2ccco2)C2=C(CC(C)(C)CC2=O)N1 (stereo not drawn)	-16.8%
89	COc1ccc(C)cc1NC(=O)CN1CCN(c2ccc(F)cc2)CC1	-17.0%
90	COC(=O)Cc1[nH]nc2c1C(c1cccc(OC)c1OC)C(C#N)=C(N)O2 (stereo not drawn)	-9.0%
91	CCN(CCNC(=O)c1cccc(N2CCCC2=O)c1)c1ccccc1	-6.8%
92	COc1ccccc1C(=O)NC(=S)Nc1ccc(N2CCCC2)cc1	-7.5%
93	Cc1ccccc1NC(=O)C1c2cccc[n+]2CC(=O)N1c1c(C)cccc1C (stereo not drawn)	-22.0%
94	CCCCn1c2c(c(=O)n(C)c1=O)C(CC(=O)OCC(=O)Nc1cccc(C(F)(F)F)c1)C(=O)N2 (stereo not drawn)	-12.6%
95	FC(F)(F)Oc1ccc(Nc2nc3ccccc3o2)cc1	-6.8%
96	CCOC(=O)/C(=N/Nc1ccc(Cl)cc1)Sc1nnnn1-c1ccc(C)cc1	-11.4%
97	CCOc1cc(NC(=S)NCC2CCCO2)c(OCC)cc1NC(=O)c1ccc(C)cc1 (stereo not drawn)	-6.2%
98	COC(=O)/C(=C\c1ccc2c(c1)c1ccccc1n2C)NC(=O)c1ccccc1	?
99	N#CC(C#N)=Cc1ccc(-c2ccc(S(=O)(=O)N=C(N)N)cc2)o1	?
100	CCN1C(=O)C(O)(CC(=O)c2ccc(-n3cccc3)cc2)c2ccccc21 (stereo not drawn)	-12.4%
101	COc1cc(-c2oc3cc(O)ccc3c(=O)c2O)ccc1O	?
102	CC1CCN(C(=S)NC(=O)C2CCCCC2)CC1	-12.0%
103	COc1cc(C)c(C(C)C)cc1S(=O)(=O)N1CCN(C)CC1	-14.6%
104	O=C(Cc1ccc(S(=O)(=O)N2CCCC2)s1)NC1CCCCCC1	-0.8%

(cont.)
#	Structure	HPGD block
105	COc1ccc(OC)c(C2=NOC(C(=O)Nc3cccc(C(C)=O)c3)C2)c1 (stereo not drawn)	-16.7%
106	O=C1C2CC=CCC2C(=O)N1CC1CCCO1 (stereo not drawn)	-4.8%
107	Cc1nnc(SCC(=O)NC(=O)NC2CCCC2)n1N	-7.5%
108	Cc1ccc(C(=O)OCC(=O)Nc2sc3c(c2C#N)CCC3)cc1	-8.8%
109	Cc1c(C(=O)c2cccc([N+](=O)[O-])c2)c2ccccn2c1CCC#N	-16.0%
110	Cc1cc(C)n(-c2nc(SCCN(C)C)c3c4c(sc3n2)CCCC4)n1	-10.4%
111	COC(=O)c1ccc(N2CCN(S(=O)(=O)c3ccccc3)CC2)c([N+](=O)[O-])c1	-1.9%
112	O=C(OCCN1C(=O)c2ccccc2C1=O)c1cc(S(=O)(=O)N2CCOCC2)ccc1Cl	-0.9%
113	O=C(NCCNc1cc(Cl)ccc1[N+](=O)[O-])c1ccco1	-5.4%
114	CCOC(=O)/C(C#N)=C/c1cc(C)n(-c2ccc(C)cc2)c1C	-14.2%
115	COc1ccc(C(c2nnnn2C2CCCC2)N2CCN(c3ccccc3)CC2)cc1 (stereo not drawn)	-15.3%
116	COc1ccc2c(c1)CCc1c(C(=O)N3CC4(C)CC3CC(C)(C)C4)noc1-2 (stereo not drawn)	-2.4%
117	C/C(=N\NC(=O)c1ccc([N+](=O)[O-])cc1)c1cc2ccccc2oc1=O	?
118	O=C(CCl)Nc1cc(-c2ccccc2)nn1-c1ccccc1	-10.1%
119	CCOC(=O)N1CCN(S(=O)(=O)c2ccc(Br)s2)CC1	-1.2%
120	COC(=O)NNC(=O)c1ccc(C)c(Br)c1	-22.6%
121	Cc1cc2oc(=O)cc(-c3ccccc3)c2c(C)c1-c1ccc(C#N)cc1	-21.5%
122	COc1cccc(-c2ccc(-c3noc(-c4ccccc4F)n3)c(OC)n2)c1	?
123	COC(=O)C/C=C/[C@@H](C)[C@@H](/C=N/OC[C@H]1O[C@H](c2ccccc2)C=C[C@@H]1Oc1ccc(OC)cc1)NS(=O)(=O)c1ccc(C)cc1	-7.3%
124	C=C(C)CN(CC)C(=O)CSc1nc2ncc(Cl)cc2[nH]1	14.1µM*
125	Cc1nnc(NC(=O)C2CCN(c3cnccn3)CC2)s1	-10.4%

Source: PubChem (National Center for Advancing Translational Sciences (NCATS))
